# Bioassay records: PubChem, several laboratories
# Bead autofluor – flagged as autofluorescent in microsphere protease counterscreen; compound autofluorescence counterscreen, microsphere flow cytometry; hits give high values; fluorescence intensity (no concentration beside the values); actives 3.1% (n = 360,000);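 active = at least 3 SD above the mean of all compounds, about 16000 in these data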;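 also: 100 nL of 1 mM stock went into each well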
# BJeLR viability – BJeLR cell viability loss; inhibition, % (concentration not given with the values); actives 0.17% (n = 300,000); AID 1554; BJeLR (HRASV12) viability, CellTiter-Glo ATP luminescence, 48 h; reference of the scale not given here;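 active = replicate mean above 50%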;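 also: 50 nL library stock added to about 25 µL; numbers are from one replicate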
# Sa RN4220 lethal – kills Staphylococcus aureus RN4220; S. aureus RN4220 growth, OD600, 16 h; inhibition, % (concentration not given with the values); actives 0.33% (n = 330,000);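 active = z-score of -3 or lower and OD600 up to 0.18 on both plates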;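 also: plate controls were untreated cells for no effect and reference antibiotic for full effect; stock transfer was 100 nL into about 80 µL; one replicate is shown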
# PrP UTR inh – suppresses PrP 5' UTR mRNA reporter expression | cell-based PrP 5' UTR mRNA reporter, plate reader | actives 0.35% (n = 340,000) | inhibition, % (test concentration not listed);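 active = every replicate at 50% or more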;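 also: 0 = median of the neutral control wells; tested in H4 reporter cells; numbers are from one replicate; inactives centre near -14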
# ugtP null kill – kills S. aureus RN4220 lacking UgtP; S. aureus RN4220 ugtP deletion, OD600 growth, 16 h; some inactives read as strong as hits; growth inhibition, % (test concentration not listed); actives 0.54% (n = 330,000);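 active = z-score under -3 and OD600 up to 0.15 on both plates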;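 also: plate controls were untreated wells for no effect and antibiotic for full effect; wells of about 80 µL received 100 nL stock; the first replicate is given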
# Mtb hypoxia inh – Mtb hypoxia fluorescent reporter inhibition | AID 1159583 | M. tuberculosis hypoxia-regulated fluorescent reporter, fluorescence | actives 0.1% (n = 300,000) | fluorescence inhibition, % (concentration not given with the values);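 active = 35 to 45% if threefold the growth effect, above 45% if 1.5-fold the growth effect; inactive = the rest, general growth blockers included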;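 also: wells of about 50 µL received 100 nL stock; 0% = vehicle wells and 100% = reference inhibitor wells; whole bacteria with a GFP reporter of the hypoxia response; strong numbers were not always called active; many hits fall short of the cut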
# Mtb hypoxia inh growth – second read-out of Mtb hypoxia inh, no call of its own (marks repeat the call); growth inhibition, %; measured here: M. tuberculosis growth (absorbance);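 0% = vehicle and 100% = reference antibiotic; read after six days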
# Active calls of the source: *; / = no result given.
(1) NC(=O)C1CCN(C(=O)COc2ccc3c(c2)oc(=O)c2ccccc23)CC1
(2) O=c1[nH]c2cc3c(cc2cc1CN(Cc1ccco1)C(=S)NCCCN1CCOCC1)OCCO3
(3) N#Cc1ccc(-c2ccccc2)nc1SCC(=O)c1cc2ccccc2oc1=O
(4) COc1ccc(Br)cc1CN(C)CC(=O)Nc1cc(Cl)cc(Cl)c1
(5) CCOc1ccc(NC(=S)N(CCOC)C(C)c2ccco2)cc1 (configuration not stated)
(6) CCCCOc1ccc(C(=O)Nc2ccc(N3CCN(C(C)=O)CC3)cc2)cc1
(7) CCC(CC)c1nnc(NC(=O)c2cc([N+](=O)[O-])ccc2N2CCCCC2)s1
(8) COc1cc(OC)c(OC)cc1/C=N/NC(=S)NCC1CCCO1 (configuration not stated)
(9) CCc1cccc(NC(=O)CN(C)C2=NS(=O)(=O)c3ccccc32)c1
(10) O=C(NCCc1ccccc1)C(=O)NN=Cc1ccc2c(c1)OCO2
Compound,1,2,3,4,5,6,7,8,9,10
Bead autofluor,5428,3914,4491,9293,5276,5554,2107,5467,2749,/
BJeLR viability,-4.8,1.2,11.0,-0.3,24.0,-3.1,-2.6,1.3,/,/
Sa RN4220 lethal,2.9,6.3,64.5,-7.4,4.4,0.0,1.2,/,3.7,5.0
PrP UTR inh,-21.0,-26.9,-16.5,-25.8,-15.5,-19.3,-17.0,-27.3,-15.0,/
ugtP null kill,-0.9,7.2,25.9,-6.9,22.4,-15.9,-24.9,/,4.9,0.2
Mtb hypoxia inh,/,3.0,/,4.0,6.3,5.2,8.7,/,10.3,7.1
Mtb hypoxia inh growth,/,5.5,/,-0.4,11.6,5.6,-5.5,/,5.3,0.6

(11) CCn1c(SCC(=O)Nc2cc(NC(C)=O)ccc2OC)nnc1-c1cccnc1
(12) Cc1ccc(-c2c(NCCc3ccccc3)c(=O)c2=O)cc1
(13) O=[N+]([O-])c1ccc(N2CCN(C(=S)c3cccc([N+](=O)[O-])c3)CC2)cc1
(14) Cc1ccc(-n2ncc3c(SCc4ccccc4)ncnc32)cc1
(15) O=C(Nc1ncn[nH]1)c1ccc([N+](=O)[O-])cc1[N+](=O)[O-]
(16) CCN(CC)S(=O)(=O)c1ccc(N=Cc2c(O)n(-c3ccccc3)c(=O)[nH]c2=O)cc1
(17) Nc1ccc(OCCCc2c(N)nc(N)nc2N)cc1
(18) CNc1nc(-c2ccccc2)nc(-c2ccccc2)c1C#N
(19) Cc1ccc(NC(=O)c2cc(=O)[nH]c3ccc(S(=O)(=O)N4CCOCC4)cc23)cc1
(20) Cc1ccc(/C=N/NC(=O)c2nnn(-c3nonc3N)c2CSc2ccccc2)s1
Compound,11,12,13,14,15,16,17,18,19,20
Bead autofluor,6253,3067,4687,2023,5969,2451,2757,3077,6974,4085
BJeLR viability,3.5,3.3,2.5,-5.4,-11.5,-6.7,1.5,5.0,/,-6.6
Sa RN4220 lethal,1.3,10.3,7.7,3.3,3.1,-11.2,/,8.0,0.8,/
PrP UTR inh,-9.3,4.4,-11.5,-40.1,-14.3,-0.6,-27.5,6.0,-5.7,-3.6
ugtP null kill,-1.6,3.3,-3.3,81.4,9.9,-1.1,/,-0.2,6.9,/
Mtb hypoxia inh,19.6,4.2,18.7,4.7,-8.6,6.3,/,/,-2.7,/
Mtb hypoxia inh growth,10.3,-1.1,3.1,-0.4,0.8,1.4,/,/,1.1,/

(21) CN(C)S(=O)(=O)c1ccc(C(=O)OCn2nnc3ccccc3c2=O)cc1
(22) Cc1ccc(S(=O)(=O)N(C)c2ccc(C(=O)NCc3ccccc3F)cc2)cc1
(23) CSc1ccc(/C=C(\NC(=O)c2ccc(C)cc2)C(=O)NN)cc1
(24) Cc1ccc(C)n1CCN1CCN(C(=O)CC#N)CC1
(25) O=C(c1ccccc1)N1CCN(CC(O)COc2ccc(Br)cc2)CC1 (configuration not stated)
(26) COc1cc(CC(=O)OCC(=O)Nc2cccc([N+](=O)[O-])c2)cc(OC)c1OC
(27) Cc1ccc[n+](CC(=O)Nc2nc3ccccc3s2)c1
(28) Cc1c(C(=O)OC2CCCC2)[nH]c2c1C(=O)CC(c1ccco1)C2 (configuration not stated)
(29) CN(C)c1ccc(/C=C(\NC(=O)c2ccccc2)C(=O)N/N=C/c2ccc(C(=O)O)cc2)cc1
(30) O=C(Nc1ccc(N2CCCC2)cc1)C(Cl)c1ccccc1 (configuration not stated)
Compound,21,22,23,24,25,26,27,28,29,30
Bead autofluor,5163,5395,4591,4298,3864,2544,4687,6115,3740,1971
BJeLR viability,-8.3,-2.0,0.3,2.6,-0.2,3.3,6.5,28.3,0.4,-8.1
Sa RN4220 lethal,-8.2,0.7,3.8,7.4,2.0,-1.8,3.4,2.8,/,/
PrP UTR inh,-33.6,-7.7,/,-31.0,-24.2,-25.4,-1.1,60.9*,-20.2,-46.5
ugtP null kill,-9.2,-1.1,-3.5,-1.9,8.3,3.1,2.1,4.3,/,/
Mtb hypoxia inh,5.7,-13.5,-4.6,14.4,1.6,-8.3,14.2,/,/,/
Mtb hypoxia inh growth,16.0,-1.0,-1.7,4.9,6.5,-3.5,12.9,/,/,/

(31) Cn1c(Cc2cccs2)nnc1SCC(=O)Nc1ccc(F)cc1F
(32) CN(Cc1cnn(C)c1)C(=O)C1CCC(=O)N(Cc2ccc(Cl)cc2)C1 (configuration not stated)
(33) Cc1ccc(C(=O)Cn2c(C)cc(C)c(C#N)c2=O)cc1
(34) COc1ccc(OC)c(C(C(=O)NC2CCCCC2)N(C(=O)c2ccccn2)c2cccnc2)c1 (configuration not stated)
(35) Cn1c(CO)cnc1S(=O)(=O)Cc1ccc([N+](=O)[O-])cc1
(36) C=CCNC(=O)COc1ccc(S(=O)(=O)NC2CCCCC2)cc1
(37) CCCCOC(=O)c1ccc(NC(=S)NC(=O)c2c(Br)c(C)nn2C)cc1
(38) COc1ccc(NS(=O)(=O)c2cc(NC(=O)C3=NN(c4ccccc4)C(=O)CC3)ccc2OC)cc1
(39) COc1cc(O)c(C(CC(=O)N2CCCC(C)C2)c2cc(OC)c(OC)c(OC)c2)c(OC)c1 (configuration not stated)
(40) CCOc1ccc(C(=O)Nc2ccc(NC(=O)c3ccccc3)c(C)c2)cc1[N+](=O)[O-]
Compound,31,32,33,34,35,36,37,38,39,40
Bead autofluor,/,5837,7594,5701,3070,11574,10530,3842,2940,4030
BJeLR viability,1.1,1.1,7.2,0.1,-10.0,4.5,-2.1,/,-10.9,-3.5
Sa RN4220 lethal,4.8,0.0,1.0,1.6,-2.2,7.7,7.2,2.2,0.1,7.1
PrP UTR inh,-22.8,25.3,8.4,-16.3,-14.2,-21.6,-3.0,-10.5,1.0,-15.8
ugtP null kill,4.0,5.3,1.3,7.2,-6.6,-1.5,4.7,-4.5,1.4,0.4
Mtb hypoxia inh,7.2,17.2,/,18.7,/,9.7,8.0,22.0,21.5,14.9
Mtb hypoxia inh growth,6.9,9.2,/,4.1,/,5.1,20.2,7.5,8.2,-3.5

(41) CCOC(=O)C[C@H]1c2ccc(C(F)(F)F)cc2S(=O)(=O)N1C1CCCC1
(42) O=C(NCCc1ccccc1)C1CCCN1S(=O)(=O)c1cccc2nsnc12 (configuration not stated)
(43) Cc1ccnc(SCC(=O)N2CCN(C(c3ccccc3)c3ccccc3)CC2)n1
(44) COc1cc(C(=O)O)cc(NC(=O)c2ccco2)c1OC
(45) Cc1nnc(NC(=O)CSc2nnc(-c3ccoc3C)n2CC(C)C)s1
(46) O=C1N=C(N2CCN(c3ccccc3)CC2)S/C1=C\c1ccco1
(47) CCn1c(=O)cc(OCC(=O)NC2CCCCC2)c2ccccc21
(48) COc1ccc(N=Cc2ccc[nH]2)cc1
(49) Cc1cc(C)n(-c2ccc(N3CCOCC3)nn2)n1
(50) COc1ccccc1C(NC(=O)C1CCCCC1)c1c(O)ccc2ccccc12 (configuration not stated)
Compound,41,42,43,44,45,46,47,48,49,50
Bead autofluor,3890,6787,10928,4209,2775,2174,16641*,8706,2511,2428
BJeLR viability,1.0,-5.9,3.9,-5.7,-0.1,-7.2,5.4,13.0,4.5,-9.3
Sa RN4220 lethal,/,-0.3,-4.9,4.9,5.4,/,-3.6,0.3,-5.7,-2.2
PrP UTR inh,-1.2,5.3,-15.8,-17.8,-18.6,0.6,-9.6,-13.6,-32.0,-23.3
ugtP null kill,/,3.1,2.1,-2.7,6.3,/,-4.0,1.1,5.0,-5.4
Mtb hypoxia inh,/,-12.4,5.7,1.3,/,/,-3.2,-2.4,11.3,-8.5
Mtb hypoxia inh growth,/,-14.8,18.4,3.5,/,/,-0.2,-11.5,6.1,11.4

(51) O=C(Oc1ccc(Cl)cc1N1C(=O)CCC1=O)c1ccco1
(52) CCCCSc1nnc(C)c(=O)[nH]1
(53) O=C(CN1CCN(C(=O)C2CCC2)CC1)Nc1ccc(F)cc1
(54) O=C(CSc1nc2ccccc2c(=O)n1NC(=O)Cc1ccccc1)NCc1ccccc1Cl
(55) Nc1cc(=O)[nH]c(SCCSc2cc(Cl)ccc2Cl)n1
(56) CN(Cc1ccccc1)C1CCNCC1
(57) COc1ccc(C(=O)Cn2c3ccccc3n3nc(CCC(=O)O)c(=O)nc23)cc1OC
(58) COc1ccc(S(=O)(=O)N2CCN(C(=O)c3cccc(Cl)c3)CC2)cc1
(59) O=C(Nc1cccc(S(=O)(=O)N2CCOCC2)c1)c1cccc(S(=O)(=O)N2CCCCC2)c1
(60) Cc1cc(C)cc(C(=O)NCC(=O)NCCc2c[nH]c3ccccc23)c1
Compound,51,52,53,54,55,56,57,58,59,60
Bead autofluor,/,6597,4986,9230,3487,4108,20229*,3448,5570,5875
BJeLR viability,2.8,-8.7,/,-19.8,-12.8,-7.1,-7.7,0.5,/,-9.5
Sa RN4220 lethal,-0.3,2.7,1.4,6.9,2.6,1.5,6.9,3.5,1.5,-2.8
PrP UTR inh,-10.2,-7.7,-2.6,-18.2,57.7*,-24.1,-8.4,-4.9,-18.6,-10.4
ugtP null kill,3.3,8.7,4.6,-9.5,2.1,8.4,6.9,8.6,-0.4,2.3
Mtb hypoxia inh,/,7.1,9.3,13.3,9.9,16.1,13.5,/,3.5,23.4
Mtb hypoxia inh growth,/,0.6,4.4,4.2,1.8,2.7,4.6,/,2.4,12.1

# Rewritten as labelled records: entries from further up.
[58] COc1ccc(S(=O)(=O)N2CCN(C(=O)c3cccc(Cl)c3)CC2)cc1
  Bead autofluor: 3448
  BJeLR viability: 0.5
  Sa RN4220 lethal: 3.5
  PrP UTR inh: -4.9
  ugtP null kill: 8.6
  Mtb hypoxia inh: /
  Mtb hypoxia inh growth: /
[26] COc1cc(CC(=O)OCC(=O)Nc2cccc([N+](=O)[O-])c2)cc(OC)c1OC
  Bead autofluor: 2544
  BJeLR viability: 3.3
  Sa RN4220 lethal: -1.8
  PrP UTR inh: -25.4
  ugtP null kill: 3.1
  Mtb hypoxia inh: -8.3
  Mtb hypoxia inh growth: -3.5
[51] O=C(Oc1ccc(Cl)cc1N1C(=O)CCC1=O)c1ccco1
  Bead autofluor: /
  BJeLR viability: 2.8
  Sa RN4220 lethal: -0.3
  PrP UTR inh: -10.2
  ugtP null kill: 3.3
  Mtb hypoxia inh: /
  Mtb hypoxia inh growth: /
[12] Cc1ccc(-c2c(NCCc3ccccc3)c(=O)c2=O)cc1
  Bead autofluor: 3067
  BJeLR viability: 3.3
  Sa RN4220 lethal: 10.3
  PrP UTR inh: 4.4
  ugtP null kill: 3.3
  Mtb hypoxia inh: 4.2
  Mtb hypoxia inh growth: -1.1

# Later entries
(61) Cc1cccc(C(=O)Nc2cc(S(=O)(=O)N3CCOCC3)ccc2N2CCCC2)c1
(62) CCOc1c(OC)cccc1C1CC(=O)Nc2cc(OC)c(OC)cc21 (configuration not stated)
(63) CN(C)c1ccc(P(=O)(OCc2ccccc2)C(O)c2ccc(Br)cc2)cc1 (configuration not stated)
(64) CCc1ccc2c(c1)cc(CN(C(=S)Nc1ccccc1Cl)C1CC1)c1nnnn12
(65) C/C(=N\NC(=O)CCn1nc(C)cc1C)C(C)(C)C
(66) Nc1nonc1-n1nnc(C(=O)N/N=C/c2cccc(F)c2)c1CN1CCCCCC1
(67) COc1ccc(OCC(O)CN2CC(C)OC(C)C2)cc1 (configuration not stated)
Compound,61,62,63,64,65,66,67
Bead autofluor,5901,5983,4748,6418,2253,6427,3903
BJeLR viability,/,0.4,-1.0,1.3,-5.3,8.5,-0.7
Sa RN4220 lethal,2.0,3.2,4.0,9.9,/,/,5.1
PrP UTR inh,-11.2,-2.3,-16.6,-4.1,-4.1,-21.2,-28.0
ugtP null kill,1.6,5.3,-4.3,-8.8,/,/,13.8
Mtb hypoxia inh,7.1,10.2,9.0,2.0,/,/,9.4
Mtb hypoxia inh growth,5.9,5.7,9.7,11.2,/,/,5.0
